ugtP null kill: growth inhibition of S. aureus ugtP deletion strain | S. aureus RN4220 ugtP deletion, OD600 growth, 16 h; some inactives read as strong as hits | growth inhibition, % (test concentration not listed) | hit rate 0.54% among 330,000 | AID 1259309;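 active = z-score under -3 and OD600 up to 0.15 on both plates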;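 also: plate controls were untreated wells for no effect and antibiotic for full effect; wells of about 80 µL received 100 nL stock; the first replicate is given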
Mtb hypoxia rep: inhibitors of hypoxia-regulated fluorescent reporter in Mycobacterium tuberculosis; M. tuberculosis hypoxia-regulated fluorescent reporter, fluorescence; fluorescence inhibition, % (no concentration beside the values); hit rate 0.1% among 300,000; AID 1159583;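 active = 35 to 45% if threefold the growth effect, above 45% if 1.5-fold the growth effect; inactive = the rest, general growth blockers included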;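 also: wells of about 50 µL received 100 nL stock; 0% = vehicle wells and 100% = reference inhibitor wells; whole bacteria with a GFP reporter of the hypoxia response; strong numbers were not always called active; many hits fall short of the cut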
RN4220 kill: kills Staphylococcus aureus RN4220 | S. aureus RN4220 growth, OD600, 16 h | hit rate 0.33% among 330,000 | inhibition, % (test concentration not listed);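 active = z-score of -3 or lower and OD600 up to 0.18 on both plates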;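 also: plate controls were untreated cells for no effect and reference antibiotic for full effect; stock transfer was 100 nL into about 80 µL; one replicate is shown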
PrP 5UTR inh: suppresses PrP 5' UTR mRNA reporter expression; AID 488862; cell-based PrP 5' UTR mRNA reporter, plate reader; hit rate 0.35% among 340,000; inhibition, % (concentration not given with the values);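 active = every replicate at 50% or more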;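 also: 0 = median of the neutral control wells; tested in H4 reporter cells; numbers are from one replicate; inactives centre near -14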
BJeLR viability: kills HRASV12-expressing BJeLR cells; BJeLR (HRASV12) viability, CellTiter-Glo ATP luminescence, 48 h; reference of the scale not given here; inhibition, % (concentration not given with the values); hit rate 0.17% among 300,000;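 active = replicate mean above 50%; inconclusive = above 50% but judged a plate artefact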;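 also: 50 nL library stock added to about 25 µL; numbers are from one replicate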
Autofluor counter: compound fluorescence in toxin protease inhibitor counterscreen. compound autofluorescence counterscreen, microsphere flow cytometry; hits give high values. fluorescence intensity (test concentration not listed). hit rate 3.1% among 360,000. AID 624483;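 active = at least 3 SD above the mean of all compounds, about 16000 in these data; inconclusive = too few beads counted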;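 also: 100 nL of 1 mM stock went into each well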
Mtb hypoxia rep growth: second read-out of Mtb hypoxia rep, no call of its own (marks repeat the call); growth inhibition, %; measured here: M. tuberculosis growth (absorbance);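 0% = vehicle and 100% = reference antibiotic; read after six days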
Active calls of the source: *; ? = inconclusive; . = not tested or not shown.

#1 CCc1cc2c(SCc3nc4sc(C(C)=O)c(C)c4c(=O)[nH]3)ncnc2s1
#2 Cc1ccc(NC(=S)NNC(=O)c2ccccc2OC(F)F)cc1
#3 CCN(CC)CCC(=O)Nc1ccc2c(c1)N(C(=O)CN(CC)CC)c1ccccc1CC2
#4 COc1ccc(NC(=S)NC(NC(=O)C(C)C)C(Cl)(Cl)Cl)c([N+](=O)[O-])c1 (centres undefined)
#5 COC(=O)c1ccc(NC(=O)c2cccc(NC(=O)c3ccco3)c2)cc1
#6 O=C(O)CCCn1c(=S)[nH]c2c(sc3ccc([N+](=O)[O-])cc32)c1=O
#7 Cc1cccc(N(Cc2ccccc2)C(=O)c2cccc(S(=O)(=O)N3CC(C)OC(C)C3)c2)c1 (centres undefined)
#8 O=c1[nH]c(C2CCN(S(=O)(=O)c3ccc4c(c3)OCCO4)CC2)nc2c1nnn2Cc1cccc(F)c1

compound no.	1	2	3	4	5	6	7	8
ugtP null kill	13	11	1	1	1	8	-3	-2
Mtb hypoxia rep	-2	9	.	4	11	-2	10	-9
Mtb hypoxia rep growth	10	1	.	-2	7	-5	-1	8
RN4220 kill	2.2	4.0	-0.2	1.1	2.2	1.0	2.5	3.4
PrP 5UTR inh	-9	-39	2	8	-19	-19	-22	-32
BJeLR viability	-5	-11	-3	-4	-4	5	6	-5
Autofluor counter	3495	8286	5212	3050	3655	3161	5398	3140

#9 Cc1ccc(C(=O)CN2C(=O)NC3(CCc4ccccc43)C2=O)s1 (centres undefined)
#10 Cc1ccc(NC(=O)C2CCCN(S(=O)(=O)c3cccnc3)C2)cc1C (centres undefined)
#11 O=C(O)c1ccccc1C(=O)c1ccc2oc(=O)[nH]c2c1
#12 COc1ccc(CCn2c(C)cc(C(=O)CN3C(=O)C(=O)N(Cc4ccco4)C3=O)c2C)cc1
#13 COc1ccc(NC(=O)c2cc3ccccc3o2)cc1S(=O)(=O)N1CCCCC1
#14 CN1C(=O)[C@@H]2[C@H](C1=O)[C@@H]1C(=O)Nc3ccccc3C(=O)N1[C@@H]2c1cccc(Br)c1
#15 CCCOc1cccc(C2/C(=C(\O)c3ccc4c(c3)OCCO4)C(=O)C(=O)N2CCCn2ccnc2)c1 (centres undefined)
#16 Cn1ncc(Cl)c1C(=O)N1CCCc2ccccc21

compound no.	9	10	11	12	13	14	15	16
ugtP null kill	3	5	-2	6	-2	.	-1	-2
Mtb hypoxia rep	-1	-11	5	11	4	.	-1	.
Mtb hypoxia rep growth	2	-13	17	-2	12	.	4	.
RN4220 kill	1.0	1.8	-1.2	6.2	-1.7	.	2.7	1.0
PrP 5UTR inh	-1	10	-15	-13	-9	-12	-8	5
BJeLR viability	.	14	.	.	.	-5	6	-5
Autofluor counter	9352	6384	3993	2942	4001	3593	5630	4678

Reprinted: compounds 3–16
#3 CCN(CC)CCC(=O)Nc1ccc2c(c1)N(C(=O)CN(CC)CC)c1ccccc1CC2
#4 COc1ccc(NC(=S)NC(NC(=O)C(C)C)C(Cl)(Cl)Cl)c([N+](=O)[O-])c1 (centres undefined)
#5 COC(=O)c1ccc(NC(=O)c2cccc(NC(=O)c3ccco3)c2)cc1
#6 O=C(O)CCCn1c(=S)[nH]c2c(sc3ccc([N+](=O)[O-])cc32)c1=O
#7 Cc1cccc(N(Cc2ccccc2)C(=O)c2cccc(S(=O)(=O)N3CC(C)OC(C)C3)c2)c1 (centres undefined)
#8 O=c1[nH]c(C2CCN(S(=O)(=O)c3ccc4c(c3)OCCO4)CC2)nc2c1nnn2Cc1cccc(F)c1
#9 Cc1ccc(C(=O)CN2C(=O)NC3(CCc4ccccc43)C2=O)s1 (centres undefined)
#10 Cc1ccc(NC(=O)C2CCCN(S(=O)(=O)c3cccnc3)C2)cc1C (centres undefined)
#11 O=C(O)c1ccccc1C(=O)c1ccc2oc(=O)[nH]c2c1
#12 COc1ccc(CCn2c(C)cc(C(=O)CN3C(=O)C(=O)N(Cc4ccco4)C3=O)c2C)cc1

compound no.	3	4	5	6	7	8	9	10	11	12
ugtP null kill	1	1	1	8	-3	-2	3	5	-2	6
Mtb hypoxia rep	.	4	11	-2	10	-9	-1	-11	5	11
Mtb hypoxia rep growth	.	-2	7	-5	-1	8	2	-13	17	-2
RN4220 kill	-0.2	1.1	2.2	1.0	2.5	3.4	1.0	1.8	-1.2	6.2
PrP 5UTR inh	2	8	-19	-19	-22	-32	-1	10	-15	-13
BJeLR viability	-3	-4	-4	5	6	-5	.	14	.	.
Autofluor counter	5212	3050	3655	3161	5398	3140	9352	6384	3993	2942

#13 COc1ccc(NC(=O)c2cc3ccccc3o2)cc1S(=O)(=O)N1CCCCC1
#14 CN1C(=O)[C@@H]2[C@H](C1=O)[C@@H]1C(=O)Nc3ccccc3C(=O)N1[C@@H]2c1cccc(Br)c1
#15 CCCOc1cccc(C2/C(=C(\O)c3ccc4c(c3)OCCO4)C(=O)C(=O)N2CCCn2ccnc2)c1 (centres undefined)
#16 Cn1ncc(Cl)c1C(=O)N1CCCc2ccccc21

compound no.	13	14	15	16
ugtP null kill	-2	.	-1	-2
Mtb hypoxia rep	4	.	-1	.
Mtb hypoxia rep growth	12	.	4	.
RN4220 kill	-1.7	.	2.7	1.0
PrP 5UTR inh	-9	-12	-8	5
BJeLR viability	.	-5	6	-5
Autofluor counter	4001	3593	5630	4678

Additional entries
#17 CSc1ccc(CCNC(=O)CCc2nnc3ccc(N4CCCC4)nn23)cc1
#18 S=C(N=Nc1ccccc1)NNc1ccccc1
#19 Cc1ccc2[nH]c(C)c(CCNC(=O)c3c(N)no[n+]3[O-])c2c1
#20 Cc1ccc(CN2C(=O)C(Cc3ccccc3)Nc3ncnc(N4CCN(c5ccccc5)CC4)c32)cc1 (centres undefined)
#21 CCOC(=O)C1CCN(c2cc3c(cc2NC(=O)c2ccccc2OCC)n(C)c(=O)n3C)CC1
#22 O=[N+]([O-])c1ccc(C=Nn2c(-c3ccccc3)n[nH]c2=S)cc1
#23 Cc1ccc(S(=O)(=O)N2CCCC(c3nc(-c4ccc(C)o4)no3)C2)cc1 (centres undefined)
#24 CC(=O)Nc1cccc(/C(C)=N/NC(=O)c2cccc(S(=O)(=O)N3CCOCC3)c2)c1

compound no.	17	18	19	20	21	22	23	24
ugtP null kill	8	-2	2	-2	-8	5	4	.
Mtb hypoxia rep	7	8	5	-8	-7	9	3	.
Mtb hypoxia rep growth	9	1	-6	3	19	2	5	.
RN4220 kill	5.6	-0.2	-11	1.4	0.6	8.7	-2.1	.
PrP 5UTR inh	-27	-91	-10	-2	-22	.	-14	-13
BJeLR viability	-12	-4	22	-1	-2	.	4	-7
Autofluor counter	5841	5516	4883	4014	5147	.	10922	3877

#25 CCCCCOc1ccc(C(=O)OCC(=O)Nc2cc(C)on2)cc1
#26 CC(=O)c1c(C)[nH]c(C(=O)NNC(=O)COc2cc(C)ccc2C(C)C)c1C
#27 COc1ccc(Cn2nnnc2CN2CCN(c3ccc(OC)cc3)CC2)cc1
#28 Cc1ccc(-n2nc3c(c2NC(=O)c2ccc(F)c(F)c2)CS(=O)(=O)C3)cc1
#29 CN(C)CCCN(C(=O)c1ccco1)c1nc2c(F)cccc2s1
#30 COc1ccc(C)cc1NC(=O)COC(C)=O
#31 COCCn1c(-c2cc(OC)c(OC)c(OC)c2)nc2oc3ccccc3c(=O)c2c1=O
#32 COc1ccc(CNC(=O)CN2CCN(S(=O)(=O)c3ccccc3)CC2)cc1

compound no.	25	26	27	28	29	30	31	32
ugtP null kill	-4	-5	12	3	-10	12	-16	11
Mtb hypoxia rep	2	2	15	4	-6	3	-6	-3
Mtb hypoxia rep growth	5	6	2	-8	9	-2	-2	5
RN4220 kill	-0.5	0.9	6.8	0.7	-4.1	4.1	-2.2	5.5
PrP 5UTR inh	-12	-17	-16	-6	-16	-12	-12	-7
BJeLR viability	.	.	4	-2	9	7	-8	.
Autofluor counter	?	3425	4160	5491	6793	16638*	3818	.

#33 NC1=NC(c2ccc(Cl)cc2)N(c2ccc(S(N)(=O)=O)cc2)C(N)=N1 (centres undefined)
#34 CCC(O)(C#CCN1CCCCC1)CC
#35 COc1ccc(N(CC(=O)N/N=C/c2ccco2)S(=O)(=O)c2ccccc2)cc1Cl
#36 CC(=O)Oc1ccccc1C(=O)Oc1ccccc1C(=O)O
#37 COC(=O)c1ccc(N2CCN(C)CC2)c(NC(=O)COc2cccc(C)c2)c1
#38 CCOC(=O)C1CCCN(C(=O)c2ccccc2[N+](=O)[O-])C1 (centres undefined)
#39 COc1ccc(C)cc1NC(=O)CCS(=O)(=O)c1cc2c(cc1Cl)NC(=O)CO2
#40 CCN1CCN(S(=O)(=O)c2ccc(S(=O)(=O)NC3CC3)cc2)CC1

compound no.	33	34	35	36	37	38	39	40
ugtP null kill	3	5	.	-5	9	17	1	.
Mtb hypoxia rep	2	2	.	3	-4	6	-6	.
Mtb hypoxia rep growth	-1	0	.	-1	2	-6	-4	.
RN4220 kill	2.9	2.3	.	2.6	3.0	9.8	1.5	.
PrP 5UTR inh	-24	-18	0	-11	-18	-39	-7	-24
BJeLR viability	-1	-5	-6	.	15	1	2	2
Autofluor counter	4312	1966	4219	5685	3851	2212	5388	3673

#41 Cc1ccn(S(=O)(=O)c2ccc3oc(=O)ccc3c2)n1
#42 OC(CNC1CCCc2ccccc21)COc1ccc2ccccc2c1 (centres undefined)
#43 O=C(Cc1ccccc1)c1c[nH]c(C(=O)NCc2ccncc2)c1
#44 COc1ccc(-c2nnc(SCc3ccccc3F)o2)cc1OC
#45 O=[N+]([O-])c1cccc(S(=O)(=O)N2CCCCC2c2cccnc2)c1 (centres undefined)
#46 COC(=O)c1[nH]c2cccc(OC)c2c1NC(=O)CCN1CCN(c2ccccc2F)CC1
#47 C/C(=N/NC(=O)c1ccc(Br)o1)c1ccc(C)o1
#48 Cc1ccc(OCCCC(=O)Nc2ccc(S(=O)(=O)Nc3cc(C)on3)cc2)cc1

compound no.	41	42	43	44	45	46	47	48
ugtP null kill	6	83	4	-7	-11	-8	.	8
Mtb hypoxia rep	7	0	7	3	.	-2	.	.
Mtb hypoxia rep growth	12	-2	4	2	.	-4	.	.
RN4220 kill	3.9	-5.0	1.4	9.4	4.4	-16	.	4.1
PrP 5UTR inh	-25	-19	6	-39	4	.	-13	-39
BJeLR viability	5	6	-3	-15	9	0	19	-9
Autofluor counter	5326	2690	4612	2502	6138	.	2516	4321

#49 COc1cc(/C=N/NC(=O)c2ccc(O)cc2)ccc1Oc1ccc([N+](=O)[O-])cn1
#50 CCOc1ccc(NS(=O)(=O)c2ccc3c(c2)N(C(C)=O)CC3)cc1
#51 CC(C)NS(=O)(=O)c1ccc(OCC(=O)NCC2CCCO2)c(Cl)c1 (centres undefined)
#52 N=c1c(-c2nc3ccccc3[nH]2)cc(C(=O)c2cccs2)nn1-c1ccccc1
#53 O=C(NC1CCOc2ccccc21)c1ccc(Cl)nc1 (centres undefined)
#54 CS(=O)(=O)c1ccc2nc(NC(=O)c3ccccc3Br)sc2c1
#55 COc1ccc(N2C(=O)C3ON(C4SC(=S)N(C)C4(C)C)C(c4ccc(Cl)cc4)C3C2=O)cc1 (centres undefined)
#56 CCOc1ccc(S(=O)(=O)NCCC(=O)N(C)CC(=O)Nc2ccc(N3CCOCC3)cc2)cc1
#57 COc1ccc(CNC(=O)CSc2nnc(C3CC3)n2C2CC2)cc1

compound no.	49	50	51	52	53	54	55	56	57
ugtP null kill	.	-4	5	-4	11	6	.	.	5
Mtb hypoxia rep	.	1	1	4	.	13	.	.	-1
Mtb hypoxia rep growth	.	4	4	13	.	3	.	.	1
RN4220 kill	.	-0.5	0.4	4.5	5.7	2.9	.	.	4.4
PrP 5UTR inh	-8	-13	-9	9	-18	-27	-9	-3	1
BJeLR viability	3	8	-1	-8	-5	-5	13	11	.
Autofluor counter	2238	3158	7705	8452	6232	.	2582	?	5324

Reformatted: results already given.
Value order – ugtP null kill	Mtb hypoxia rep	Mtb hypoxia rep growth	RN4220 kill	PrP 5UTR inh	BJeLR viability	Autofluor counter
54. CS(=O)(=O)c1ccc2nc(NC(=O)c3ccccc3Br)sc2c1
    6	13	3	2.9	-27	-5	.
55. COc1ccc(N2C(=O)C3ON(C4SC(=S)N(C)C4(C)C)C(c4ccc(Cl)cc4)C3C2=O)cc1 (centres undefined)
    .	.	.	.	-9	13	2582

Source: PubChem BioAssay
